# Source: PubChem BioAssay
# ALR H2O2 inh = human ALR oxidase inhibition via reduced H2O2 | 290,000 tested, 3.8% active | P55789 | purified ALR, DTT oxidation, H2O2 HRP-luminol luminescence | inhibition, % (concentration not given with the values);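 active = mean and each replicate at 75% or more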;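 note: stock transfer was 7.5 nL into about 7.5 µL; 0% = neutral wells and 100% = wells with inactivated enzyme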
# HNF4A DNA FP = change in binding of human HNF4 alpha to DNA; P41235; HNF4a-FITC DNA binding, fluorescence polarization, 1 h; activity change, % at 10 µM; 360,000 tested, 0.3% active; AID 1224865; in the data active = activity change above about 30%, passing the limit was not always enough;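 note: controls were the assay level and a saturating level of protein; the project sought stronger binding though the title names inhibitors; some compounds called inactive have numbers as strong as hits; positive values seem to mean higher polarization but the record does not say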
# Target sequence (P41235 whole entry, looked up): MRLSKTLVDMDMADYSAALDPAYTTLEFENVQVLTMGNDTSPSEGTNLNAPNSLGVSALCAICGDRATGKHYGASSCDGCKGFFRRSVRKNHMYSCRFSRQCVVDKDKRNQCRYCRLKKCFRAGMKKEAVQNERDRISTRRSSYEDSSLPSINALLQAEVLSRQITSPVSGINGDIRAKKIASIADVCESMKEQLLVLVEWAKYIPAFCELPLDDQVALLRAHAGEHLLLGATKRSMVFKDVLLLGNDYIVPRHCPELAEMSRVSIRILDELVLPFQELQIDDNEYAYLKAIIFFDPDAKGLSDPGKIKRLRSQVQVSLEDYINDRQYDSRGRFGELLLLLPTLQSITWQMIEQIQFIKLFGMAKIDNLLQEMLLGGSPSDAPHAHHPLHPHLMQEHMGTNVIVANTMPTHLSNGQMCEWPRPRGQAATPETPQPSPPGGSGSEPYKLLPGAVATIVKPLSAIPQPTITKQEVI
# Ecoli rRNA inh = inhibits bacterial ribosomal RNA function over humanized ribosomes. E. coli WT GFP vs humanized-ribosome RFP mutants, fluorescence, 24 h; hits give low values; DMSO median 0, no signal -100. GFP signal change (wild-type ribosome), % (test concentration not listed). 350,000 tested, 1.6% active. AID 720706;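 active = significant combined selectivity score with lowered wild-type GFP, culture density cut under 30%, mutant RFP and density less affected; inactive = any of these conditions unmet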; note: one replicate is shown; some compounds called inactive have numbers as strong as hits
# Ecoli growth = E. coli growth inhibition; Escherichia coli growth, OD600, 23 h; hits give low values; OD600 absorbance (concentration not given with the values); 330,000 tested, 0.21% active;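 active = OD600 absorbance below the run mean of sample wells minus 3.6 SD, in any replicate, cut at about 0.56 in these data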;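 note: stock transfer was 300 nL into about 60 µL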
# UCH37 DUB inh = blocks the human deubiquitinase UCH37; Q9Y5K5; purified proteasome/UCH37, Ub-AMC cleavage fluorescence; inhibition, % (test concentration not listed); 330,000 tested, 0.33% active; AID 588478;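 active = mean of two replicates above 20%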;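 note: 0% = compound-free wells with enzyme and 100% = wells lacking proteasome; stock transfer was 100 nL into about 20 µL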
# Target sequence (Q9Y5K5 whole entry, looked up): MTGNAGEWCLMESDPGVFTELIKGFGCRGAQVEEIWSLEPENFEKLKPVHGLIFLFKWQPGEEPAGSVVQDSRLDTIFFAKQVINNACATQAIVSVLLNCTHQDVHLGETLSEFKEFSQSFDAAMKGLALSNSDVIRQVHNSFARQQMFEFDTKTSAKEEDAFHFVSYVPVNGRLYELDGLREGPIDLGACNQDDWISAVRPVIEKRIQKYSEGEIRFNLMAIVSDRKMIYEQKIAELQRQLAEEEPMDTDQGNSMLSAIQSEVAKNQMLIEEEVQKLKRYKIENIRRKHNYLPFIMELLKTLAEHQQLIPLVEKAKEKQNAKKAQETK
#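 Material: human UCH37 enzyme supplied as purified proteasome complex / Amount: 0.15 nM proteasome as dispensed / Buffer or medium: pH 7.4 Tris-HCl (50 mM) with ovalbumin, ATP-MgCl2, DTT / Times: preincubation 30 min, reaction 25 min, room temperature / Technique: AMC fluorescence from Ub-AMC cleavage, excitation 355 nm, emission 460 nm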
# Beta2AR agonist = activates human beta-2 adrenergic receptor causing internalization; 340,000 tested, 0.43% active; AID 504454; P07550; Am2.2-beta2AR cells, FAP receptor internalization, flow cytometry; reference of the scale not given here; response, % (no concentration beside the values);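 active = response above a set limit, near 3 SD of response in nonfluorescent compounds, cut at about 42% in these data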;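 note: stock transfer was 100 nL into about 11 µL; a reference agonist was the positive control; negative values mostly stem from fluorescent compounds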
# FGF22 binding = FGF22 (human) thermal shift binding | recombinant FGF22 thermal shift, SYPRO orange fluorescence; percent of sucrose octasulfate shift, DMSO zero | calls only at 9.99 µM | 340,000 tested, 1.5% active | AID 651658;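 active = melting point raised past a set limit in the mean and every replicate; three in four hits are not shown here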
# Target sequence (Q9HCT0 whole entry, looked up): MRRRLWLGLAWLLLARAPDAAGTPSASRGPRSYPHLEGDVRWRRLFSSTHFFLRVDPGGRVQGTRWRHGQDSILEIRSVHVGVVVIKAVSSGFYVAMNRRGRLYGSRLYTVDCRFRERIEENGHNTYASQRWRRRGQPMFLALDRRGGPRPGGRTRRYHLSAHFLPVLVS
# Ecoli rRNA inh OD600 = further read-out of Ecoli rRNA inh, marked with its call; OD600 change, %; measured here: OD600 growth;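 optical density of the mix in the first replicate; 0 = DMSO median and -100 = no signal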
# Ecoli rRNA inh RFP = recorded beside Ecoli rRNA inh, whose call it bears; RFP signal change, %; measured here: RFP humanized mutant strains;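 first replicate; 0 = DMSO median and -100 = no signal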
# * marks the source's active call; other numbers are inactive results; i = inactive; nt = no result given.
SMILES,ALR H2O2 inh,HNF4A DNA FP,Ecoli rRNA inh,Ecoli rRNA inh OD600,Ecoli rRNA inh RFP,Ecoli growth,UCH37 DUB inh,Beta2AR agonist,FGF22 binding
CC(=O)COc1ccc2c(C)c(C)c(=O)oc2c1,-3.2,-1.9,nt,nt,nt,0.733,-133.8,-14.5,nt
COc1cccc(COC(=O)Nc2ccccc2)c1OC,nt,1.3,-1.9,-14.4,-1.8,nt,nt,nt,i
CC1CCN(S(=O)(=O)c2ccc(C(=O)Nc3nnc(-c4ccccn4)o3)cc2)CC1,13.7,-0.2,-7.0,-10.5,-3.1,0.686,6.0,4.0,i
Cc1n[nH]c(=O)c2c(NC(=O)COC(=O)/C=C/c3cccc(C(F)(F)F)c3)oc(C)c12,-14.7,2.0,5.4,8.4,-1.1,0.662,3.1,2.4,i
Cc1ccccc1Cc1c(C)nc2nc(SCC(=O)NCCCN3CCCC3)nn2c1C,-2.9,7.0,0.0,5.8,7.5,0.664,4.6,-9.2,i
CCCCc1nnc(NC(=O)C2CCCO2)s1 (stereo unspecified),-1.5,-2.1,nt,nt,nt,0.668,1.1,-1.1,nt
CCOC(=O)/C(=N\Nc1cccc(C(F)(F)F)c1)N(CCOC)CCOC,97.2*,0.1,nt,nt,nt,nt,nt,-7.2,nt
CCc1nnc(NC(=O)c2sc3nc(C)cc(COC)c3c2N)s1,14.4,0.4,1.6,5.8,3.0,0.678,0.6,-4.0,i
FC(F)(F)c1cc(Sc2ccccc2)nc(-c2ccccn2)n1,nt,3.1,nt,nt,nt,0.664,1.0,1.7,nt
CCOc1ccc(CCNC(=O)COC(=O)c2oc3ccccc3c2COC)cc1OCC,-1.1,-3.8,nt,nt,nt,0.709,1.4,0.1,i
Cc1noc(C)c1C(=O)N(C)CC(=O)Nc1ccc(F)c(F)c1F,-4.0,6.5,3.4,14.3,-1.2,nt,nt,-2.4,i
CC(=O)c1cnc2c(-c3ccc(Cl)cc3)cnn2c1C,1.4,-1.4,nt,nt,nt,0.689,-1.8,2.3,nt
CC1CCc2c(C(=O)NCc3ccccn3)csc2C1 (stereo unspecified),-9.0,-1.2,1.6,10.9,-4.1,0.689,0.9,-4.7,i
COc1cc(CN(C(=O)c2cccs2)C2CCS(=O)(=O)C2)cc(OC)c1OC (stereo unspecified),-8.0,-0.4,-9.5,-13.7,-0.2,0.706,-0.9,-1.9,i
COc1cccc(NC(=O)CN(C)CC(=O)Nc2ccc(C)cc2Cl)c1,-3.2,7.4,-5.5,-11.9,6.2,0.706,7.2,7.8,i
COc1ccccc1-c1sc2cc3c(cc2c1C#CCO)OCO3,1.2,2.0,3.8,15.0,-5.2,0.694,1.5,-3.4,i
CC(=O)C1CCC2C3CCC4CC(=O)CCC4(C)C3C(O)CC12C (stereo unspecified),nt,-1.5,-17.6,-44.5,-4.7,0.624,1.0,-7.4,i
O=C(Nc1cnc2ccccn2c1=O)c1ccc(Cl)cc1Cl,1.3,-4.4,-3.7,4.0,-2.8,0.647,-1.7,-23.9,nt
Cc1ccccc1-c1nnc(SCC(=O)NCC2CCCO2)o1 (stereo unspecified),-0.4,0.4,2.7,8.9,-2.7,0.672,1.0,-19.1,i
Cc1ccc(NC(=O)Cn2c(=O)c3cccn3c3ccccc32)c(Cl)c1,-7.3,3.6,0.7,0.8,-1.3,0.66,-4.2,3.8,i
Cn1c(=O)c2c(nc(N/N=C/c3cccnc3)n2Cc2ccccc2)n(C)c1=O,31.8,-1.3,-9.7,-1.8,-2.9,nt,nt,4.4,i
CC(C)NC(=O)CSCc1cccc(Br)c1,-26.1,-1.1,-0.7,3.2,-4.6,0.659,5.3,9.6,i
Cc1ccc(C(=O)CSc2nnc(-c3ccco3)o2)o1,4.3,1.8,nt,nt,nt,0.683,2.3,-3.7,nt
CC(C)C(OC(=O)c1cccs1)C(=O)NCc1ccc(F)cc1 (stereo unspecified),4.1,1.7,2.0,0.5,-1.0,nt,nt,8.8,i
CC(=O)c1cccc(NC(=O)N2CCOCC2)c1,-7.2,-2.2,26.3,25.3,2.8,0.632,-2.8,0.8,i

# An excerpt from above in order of the Ecoli rRNA inh OD600 value, largest number first:
mol | ALR H2O2 inh | HNF4A DNA FP | Ecoli rRNA inh | Ecoli rRNA inh OD600 | Ecoli rRNA inh RFP | UCH37 DUB inh | Beta2AR agonist | FGF22 binding
COc1ccccc1-c1sc2cc3c(cc2c1C#CCO)OCO3 | 1.2 | 2.0 | 3.8 | 15.0 | -5.2 | 1.5 | -3.4 | i
Cc1noc(C)c1C(=O)N(C)CC(=O)Nc1ccc(F)c(F)c1F | -4.0 | 6.5 | 3.4 | 14.3 | -1.2 | nt | -2.4 | i
Cc1ccccc1-c1nnc(SCC(=O)NCC2CCCO2)o1 (stereo unspecified) | -0.4 | 0.4 | 2.7 | 8.9 | -2.7 | 1.0 | -19.1 | i
Cc1n[nH]c(=O)c2c(NC(=O)COC(=O)/C=C/c3cccc(C(F)(F)F)c3)oc(C)c12 | -14.7 | 2.0 | 5.4 | 8.4 | -1.1 | 3.1 | 2.4 | i
Cn1c(=O)c2c(nc(N/N=C/c3cccnc3)n2Cc2ccccc2)n(C)c1=O | 31.8 | -1.3 | -9.7 | -1.8 | -2.9 | nt | 4.4 | i
COc1cc(CN(C(=O)c2cccs2)C2CCS(=O)(=O)C2)cc(OC)c1OC (stereo unspecified) | -8.0 | -0.4 | -9.5 | -13.7 | -0.2 | -0.9 | -1.9 | i

# The listing picks up, starting two compounds before the break.
SMILES,ALR H2O2 inh,HNF4A DNA FP,Ecoli rRNA inh,Ecoli rRNA inh OD600,Ecoli rRNA inh RFP,Ecoli growth,UCH37 DUB inh,Beta2AR agonist,FGF22 binding
CC(C)C(OC(=O)c1cccs1)C(=O)NCc1ccc(F)cc1 (stereo unspecified),4.1,1.7,2.0,0.5,-1.0,nt,nt,8.8,i
CC(=O)c1cccc(NC(=O)N2CCOCC2)c1,-7.2,-2.2,26.3,25.3,2.8,0.632,-2.8,0.8,i
CCOC(=O)C1=C(C)NC(SCc2cc(=O)[nH][nH]2)=C(C#N)C1c1cccs1 (stereo unspecified),nt,1.6,-0.3,-2.9,5.4,0.653,1.3,6.6,i
Nc1nonc1-n1nnc(C(=O)N/N=C/c2ccc(F)cc2)c1-c1ccc2c(c1)OCO2,-1.7,0.1,-1.1,10.1,-2.9,nt,nt,3.3,i
CNCc1c(OCc2ccccc2)ccc2ccccc12,-37.1,1.0,10.7,7.9,5.7,0.64,5.0,16.6,i
O=c1[nH]cc(COCc2ccccc2)c(=O)[nH]1,-1.1,-4.0,nt,nt,nt,0.731,2.2,2.6,nt
CSc1ccccc1NC(=O)c1cc(C(C)C)on1,2.4,2.3,nt,nt,nt,0.719,0.8,-1.6,nt
O=C(Nc1ccc(S(=O)(=O)N2CCOCC2)cc1)c1cccc([N+](=O)[O-])c1,16.1,-2.4,-6.3,1.7,-2.8,0.622,5.2,1.1,i
O=C(CN1CCC(C(=O)c2ccc(F)cc2)CC1)Nc1ccccc1Cl,0.6,-0.2,-12.8,-49.8,-4.1,0.643,3.5,5.9,i
O=C(Oc1ccccc1N1C(=O)C2CCCCC2C1=O)c1ccccc1 (stereo unspecified),-7.3,1.9,nt,nt,nt,0.655,1.6,1.0,nt
CCCCn1c(/N=C/c2ccc3c(c2)OCO3)nc2ccccc21,2.9,-5.1,-4.5,-5.7,-4.9,nt,nt,0.5,i
O=C(Cn1c(=O)oc2cc(S(=O)(=O)N3CCCCC3)ccc21)N1CCCCC1,-5.8,-0.3,8.6,17.3,-2.7,0.703,-0.2,0.5,i
COc1ccc(NC(=S)Nc2ccc(Oc3ccccc3)cc2)cc1,-2.0,0.0,nt,nt,nt,0.726,0.0,-6.0,nt
COc1ccc(-n2nc(C(=O)NCc3ccco3)c3c4ccccc4n(C)c3c2=O)cc1,1.9,0.1,-0.5,1.4,-2.1,0.654,-129.1,5.8,i
CN(C)/C=C(\C=O)c1c(Cl)cccc1Cl,-11.5,0.5,8.9,5.2,2.2,0.702,2.5,15.6,i
Cc1ccc(NC(=O)/C=C/c2ccco2)cc1S(=O)(=O)N1CCCCCC1,-5.3,1.2,-2.3,2.4,5.7,0.673,-9.2,9.8,i
CCN(CC)CCCNCC(=O)Nc1ccc(OC)c(Cl)c1,-2.7,nt,nt,nt,nt,0.673,3.2,nt,nt
COc1cc(C(=O)NC(C)c2ccc(-n3ccnc3)cc2)cc(OC)c1C (stereo unspecified),11.3,0.3,10.7,-12.6,-0.5,0.639,-0.1,-8.2,i
O=C(NNc1cccc(Cl)n1)C1CC1,68.1,-0.7,12.7,9.0,0.1,0.716,-1.2,-7.7,nt
Cc1nc2c3cc(F)ccc3n(Cc3ccccc3F)c2s1,-2.9,-0.6,-51.3,-73.2,-15.1,0.661,1.2,-0.4,i
NC(=O)C1CCN(C(=O)CN(c2ccc3c(c2)OCCO3)S(=O)(=O)c2ccccc2)CC1,nt,-0.2,6.8,9.4,0.3,0.663,0.7,-0.7,i
CCCCN(C)CCNC(=O)C(NC(=O)C1CCC(C)CC1)C(C)C (stereo unspecified),nt,-3.6,3.5,-5.6,-4.0,0.677,5.1,9.1,i
CC1(C)Cc2c(c(-c3ccccc3)nc(N3CCOCC3)c2C(N)=O)CO1,-14.6,-2.7,nt,nt,nt,0.705,4.7,-10.1,nt
COc1ccccc1CN(C)C(=O)c1cccc(S(=O)(=O)N2CCc3ccccc3C2)c1,-21.7,0.6,-6.8,-19.1,6.1,0.718,-0.5,3.4,i

# One compound at a time, from the list above:
# `CC(=O)c1cnc2c(-c3ccc(Cl)cc3)cnn2c1C` in the list: ALR H2O2 inh = 1.4; HNF4A DNA FP = -1.4; Ecoli rRNA inh = nt; Ecoli rRNA inh OD600 = nt; Ecoli rRNA inh RFP = nt; Ecoli growth = 0.689; UCH37 DUB inh = -1.8; Beta2AR agonist = 2.3; FGF22 binding = nt
# `Cc1nc2c3cc(F)ccc3n(Cc3ccccc3F)c2s1` in the list: ALR H2O2 inh = -2.9; HNF4A DNA FP = -0.6; Ecoli rRNA inh = -51.3; Ecoli rRNA inh OD600 = -73.2; Ecoli rRNA inh RFP = -15.1; Ecoli growth = 0.661; UCH37 DUB inh = 1.2; Beta2AR agonist = -0.4; FGF22 binding = i

# Not all compounds are listed (hit frequency here may not be typical).
